# Screening results deposited in PubChem BioAssay by National Center for Advancing Translational Sciences (NCATS).
# Anthrax LT inh: blocks cellular internalization of anthrax lethal toxin | Cells, anthrax lethal toxin internalization, FRET ratio (460/530) | Potency, µM (top dose mostly 40 µM), without a hit: top-dose activity change, negative = inhibition, actives largely listed as inhibitors | 70,000 compounds, 0.67% hits | AID 912; active = well fitted falling ratio curve with the 530 nm signal flat; inconclusive = other ratio curves, or a change in one channel alone; inactive = flat curves in the ratio and both channels; the % refers to the ratio; further: on the % scale 0 is the no-effect control and ±100 the full control effect; nearly all actives have a fitted effect of over 50% in size; tested in ME-180 cells; beta-lactamase reporter
# Prx2 Sm inh: Schistosoma mansoni Prx2 inhibition | S. mansoni Prx2 activity coupled to TGR/GSH (TGR is thioredoxin glutathione reductase), NADPH fluorescence loss, qHTS; some inactives read as strong as hits | Potency, µM | 65,000 compounds, 0.07% hits; active means full or partial inhibition curve with a strong effect at the top dose; inconclusive means weaker partial or single-point curve; inactive means no accepted curve; further: series up to 57 µM; many of its hits are not listed in these tables
#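 Prx2 inhibition was measured as reduced NADPH consumption when electrons flowed from NADPH through TGR and glutathione to Prx2 and H2O2. Plates were read kinetically over 8 min; enzyme reagents were held at 4 deg C during dispensing.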
# The depositor's hits bear a star; u = inconclusive; x = no result given; & = joins results of further samples; [ ] = dose if it differs, or a comment. Potency means the concentration at half of the fitted maximal effect. This is a subset; the hit share may differ from the screen's.
# Order of values – Prx2 Sm inh	Anthrax LT inh
CCC(Oc1ccccc1)C(=O)Nc1nnc(C(F)(F)F)s1 (stereo not given)
→ >57	u
CCC(OC(=O)c1ccco1)C(=O)NCc1ccc(C)cc1 (stereo not given)
→ >57	14.6%
CCOC(=O)c1c(NC(=O)CSc2nnc(C)c(=O)[nH]2)sc2c1CCC2
→ >57	-9.4%
O=C(O)[C@@H]1CCCNC1
→ >57	-5.9%[3.58 µM]
O=C(CN1CCN(c2ccc(F)cc2)CC1)Nc1nnc(-c2ccccc2)s1
→ >57	1.2%
Cc1cc(-n2nc(C)cc2C)nc(N)n1
→ >57	2.4%
COc1cccc(N2CC34C=CC(O3)C(C(=O)O)C4C2=O)c1 (stereo not given)
→ >57	12.3%
C=C[C@@]1(C)CC(=O)[C@@]2(O)[C@@]3(C)[C@H](O)CCC(C)(C)[C@@H]3[C@H](O)[C@H](OC(C)=O)[C@]2(C)O1
→ >25.6	-12.3%
O=C1Nc2ccccc2C12OCC1(CO2)COC2(OC1)C(=O)Nc1ccccc12 (stereo not given)
→ >57	-16.7%
O=C(NCCC1=CCCCC1)c1cnccn1
→ >57	-2.1%
Cc1ccc(Nc2nnc(-c3ccc4c(c3)OCO4)o2)c(C)c1
→ >57	u
COc1ccc(CN2CC(C(=O)NCCCN3CCN(Cc4ccccc4)CC3)CC2=O)cc1 (stereo not given)
→ >57	-5.9%
O=c1c2ccccc2nc(-c2ccccc2)n1CCN1CCOCC1
→ >57	10.0%
CSc1nc(N2CCN(CCO)CC2)c2sc3nc(-c4ccco4)c4c(c3c2n1)CCC4
→ >57	u
O=C(NCCCn1ccnc1)c1cn(-c2ccccc2)nc1-c1ccccc1
→ >57	u
COc1ccc(-c2nn3cnnc3s2)cc1OC
→ >57	x
O=C(COC(=O)Cn1cnc2ccccc21)NCCc1ccccc1
→ >57	6.5%
COC(=O)Cc1c(C)nc2nc(Cc3ccccc3)[nH]n2c1=O
→ >57	x
COC(=O)c1ccc(CSc2nc3c(cnn3-c3ccc(F)cc3)c(=O)[nH]2)o1
→ >57	u
CCN1C(=O)c2ccc(C(=O)O)cc2C1=O
→ >57	0.0%
Cc1cccc(NC(=O)Cn2cnc3ccc(S(=O)(=O)N4CCC(C)CC4)cc3c2=O)n1
→ >57	u
Cc1cccc(-c2nnn(CC/C(N)=N/O)n2)c1
→ >57	1.1%
O=C(N1CCOCC1)N(Cc1ccco1)CC1CCCO1 (stereo not given)
→ >57	8.6%
COC(=O)CCS(=O)(=O)c1ccc(Cl)c(Cl)c1
→ >57	7.9%
COc1ccc(OC)c(S(=O)(=O)N2CCc3ccccc32)c1
→ >57	-10.8%
O=C(OCC1OC2C(Oc3nc(=O)ccn32)C1O)c1ccccc1 (stereo not given)
→ >57	-6.2%
CCOC(=O)c1c2n(c3ccc(O)cc13)CCC2
→ >57	-2.7%
COC(=O)CNC(=O)c1ccc2c(c1)S(=O)(=O)c1ccccc1C2=O
→ >57	4.1%
N#CC(C#N)=NNc1ccc2cn[nH]c2c1
→ x	-11.2%[8 µM]
Cc1cccc(NC(=O)CSc2nnc(-c3cc(C)n(-c4ccccc4)c3C)o2)c1C
→ >57	-29.5%

# As entered above.
# Result of Cc1cccc(NC(=O)CSc2nnc(-c3cc(C)n(-c4ccccc4)c3C)o2)c1C in Anthrax LT inh: -29.5%
# Result of COc1cccc(N2CC34C=CC(O3)C(C(=O)O)C4C2=O)c1 (stereo not given) in Anthrax LT inh: 12.3%

# (continued)
# Order of values – Prx2 Sm inh	Anthrax LT inh
c1ccc2[nH]c(CN3CCN(c4ncnc5c4oc4ccccc45)CC3)nc2c1
→ >57	-4.3%
C[C@@H](CS(=O)(=O)Cc1ccccc1)C(N)=O
→ >57	-15.0%[8 µM]
C=CCNC(=O)c1c(Cl)cccc1Cl
→ >57	-7.4%
CCOC(=O)CC(Nc1nc(N2CCOCC2)nc(N2CCOCC2)n1)c1ccccc1Cl (stereo not given)
→ >57	-19.2%
CC(CCc1ccco1)NC(=O)Nc1cccc(F)c1 (stereo not given)
→ >57	-7.2%
N#CCCn1c(=O)c(-c2ccc(Cl)cc2)nc2cnc(N3CCNCC3)nc21
→ >57	u
CC1=C(C(=O)O)N2C(=O)[C@@H](NC(=O)[C@@H](N)C3=CCC=CC3)[C@@H]2SC1
→ >57	5.7%
CN1CCN(CC#CCn2c3ccccc3c3ccccc32)CC1
→ >57	u
COc1ccc(C(NC(=O)c2ccco2)c2ccc(OC)c(OC)c2)cc1 (stereo not given)
→ x	19.8%
O=C(O)c1cc(S(=O)(=O)N2CCCCCC2)c(Cl)cc1Cl
→ >57	u
C#C[C@]1(O)CC[C@H]2[C@@H]3CCc4cc(O)ccc4[C@H]3CC[C@@]21C
→ x	-11.1%
CCOC(=O)c1c(N)sc2c1CCCC2
→ >57	3.2%
CCCC(=Nc1ccccc1)C1=C(O)C(C(=O)OC)C(C)(C)CC1=O (stereo not given)
→ >57	-1.1%
CCOC(=O)c1[nH]c(C)c(C(=O)NCc2cccnc2)c1C
→ >57	-6.1%
Cc1cc(Oc2ccc(=O)n(C)n2)nc(Oc2ccc(=O)[nH]n2)n1
→ >57	-1.4%
Cc1ccccc1-c1nc(NCc2cccs2)c2ccccc2n1
→ >57	u
COc1cccc(C(=O)CN2C3=NCCCN3c3ccccc32)c1
→ >57	-10.6%
CC(=O)N1CCC2(CCN(Cc3ccncc3)CC2)CC1
→ >57	12.7%
COc1ccc(CC(=O)OCn2nnc3ccccc3c2=O)cc1
→ >57	17.0%
CC(C)(C)c1ccccc1OCC(=O)NCCC(=O)O
→ >57	-4.1%
CN(C)CC(=O)Nc1ccc(S(N)(=O)=O)cc1
→ x	6.4%
Cc1noc(C)c1S(=O)(=O)NCCN1CCN(c2ccccc2)CC1
→ >57	-9.4%
CN(C)S(=O)(=O)N(Cc1ccc(Br)cc1)c1ccccc1
→ >57	-13.2%
C[N+](C)([O-])CCC=C1c2ccccc2CCc2ccccc21
→ >57	-19.4%[8 µM]
Oc1[nH]c2ccccc2c1C=Nc1ccc2c(c1)OCCO2
→ >57	-14.8%
COc1ccccc1N1CCN(C(=O)c2cc(-c3ccc(Cl)c(Cl)c3)on2)CC1
→ >57	0.2%
CCOC(=O)CNC(=O)CSc1ncnc2c1cnn2-c1ccccc1
→ >57	-6.6%
CC(=O)Nc1cc(NC(C)=O)cc(C(=O)OCC(=O)N2CC(C)OC(C)C2)c1 (stereo not given)
→ >57	4.8%
Cc1cccc(-n2nnc(C(=O)Nc3ccc(F)cc3)c2N)c1
→ >57	-2.8%
O=C(NCCCN1CCCC1=O)NC12CC3CC(CC(C3)C1)C2
→ >57	8.4%
COc1ccc(C(=O)CSc2nnc(CNC(=O)c3ccc(OC)c(OC)c3)n2C)cc1
→ >57	4.1%
N#CCCN(CCC#N)C(=O)COc1ccc(Cl)cc1Cl
→ >57	u
CC1CCCCC1NS(=O)(=O)c1ccc(S(=O)(=O)N2CCN(CCC#N)CC2)cc1 (stereo not given)
→ >57	1.9%
C/C(N)=C(\C#N)C(=O)NCCc1ccccn1
→ >57	-26.9%
C[C@H]1[C@@H](O)[C@@H](C)\C=C/C=C\C=C/C=C\C=C/C=C\C=C/[C@@H](O[C@H]2O[C@@H](C)[C@@H](O)[C@@H](N)[C@@H]2O)C[C@@H]2O[C@](O)(C[C@@H](O)C[C@@H](O)[C@@H](O)CC[C@@H](O)C[C@@H](O)CC(=O)O[C@H]1C)C[C@@H](O)[C@H]2C(=O)O (stereo in doubt)
→ >57	3.2%[3.58 µM]
C=CCn1c(SCC(=O)Nc2cc(C)c(Cl)cc2OC)nnc1-c1ccco1
→ >57	x
O=C1C=C(NCC2CCCO2)CC(c2ccccc2)C1 (stereo not given)
→ >57	0.1%
CC(C)COP(=O)(c1ccc(N(C)C)cc1)C(O)c1ccncc1 (stereo not given)
→ >57	6.8%
CCCn1c(-c2ccc(F)cc2)nc2c(N3CCC(N(C)C)C3)nc(C)nc21 (stereo not given)
→ x	9.8%
COc1cccc(C(=O)Nc2c3c(nn2-c2cccc(C)c2C)CS(=O)(=O)C3)c1OC
→ >57	-12.0%
C/C=C/OC(=O)NC(c1ccccc1)[C@]1(C(C)=O)CCOC1=O (stereo not given in full)
→ x	-12.1%[8 µM]
CC(C(=O)Nc1ccc(C(=O)O)cc1)N1C(=O)c2ccccc2C1=O (stereo not given)
→ >57	2.3%
COc1ccc(OC)c(CN2CCCC(C(=O)N3CCCCC3)C2)c1 (stereo not given)
→ >57	7.7%
COC(=O)CN1C(=O)C(O)(CC(=O)c2ccc(C)o2)c2ccccc21 (stereo not given)
→ >57	-5.0%
O=C(NCc1cccs1)C1CCCN(c2ncccn2)C1 (stereo not given)
→ >57	20.7%
CCN(CC)S(=O)(=O)c1ccc2nc(NC(=O)c3cccs3)sc2c1
→ >57	u
CCCCCc1nc2c(=O)[nH]c3ccccc3c2o1
→ >57	0.3%
C#CCN1C(=O)C2C(C(=O)NC)C3C=CC2(O3)C1C(=O)NCc1ccc(OC)cc1 (stereo not given)
→ >57	11.7%
COc1ccc(N2CCCn3c2nc2c3c(=O)n(CCCc3ccccc3)c(=O)n2C)cc1
→ >57	-2.4%
CCCS(=O)(=O)N1CCC(C(=O)NCCN2CCCC2)CC1
→ >57	9.9%
COc1ccc(-n2c(=O)c(CCc3ccccc3)nc3cnc(N4CCNCC4)nc32)cc1
→ >57	u
Cc1cc(C(=O)CSc2nnc(-c3cccnc3)n2-c2ccccc2F)c(C)n1C
→ >57	-25.3%
CCn1c(CSc2nnc(C)n2-c2ccccc2)nc2cc(S(=O)(=O)N(C)C)ccc21
→ >57	-10.8%
COC(=O)[C@H]1C[C@@H]1[C@H](NS(=O)(=O)c1ccc(-c2ccccc2)cc1)c1ccccc1
→ >57	-7.4%
O=C(CCC(=O)c1cccs1)OCc1nnc(-c2ccccc2)o1
→ >57	4.3%
Clc1cc(I)cc(Cl)c1NC1=NCCN1
→ >25.6	-6.2%
Cc1ccc2c(c1)CC1(CN2C)C(=O)NC(=O)N(c2cccc(C)c2C)C1=O (stereo not given)
→ >57	-1.5%
COc1cc(-c2nnn(CC#N)n2)ccc1OCc1ccccc1
→ >57	-13.1%
O=C(Oc1ccccc1)c1ccc2nccnc2c1
→ >57	u
CCn1c(COc2cccc(C)c2)nnc1SCC(=O)Nc1cccc(C(=O)O)c1
→ >57	0.5%

# The closing 3 compounds of the section above come first, to join the parts.
# Order of values – Prx2 Sm inh	Anthrax LT inh
COc1cc(-c2nnn(CC#N)n2)ccc1OCc1ccccc1
→ >57	-13.1%
O=C(Oc1ccccc1)c1ccc2nccnc2c1
→ >57	u
CCn1c(COc2cccc(C)c2)nnc1SCC(=O)Nc1cccc(C(=O)O)c1
→ >57	0.5%
COc1ccc(NC(=O)c2oc3ccccc3c2NC(=O)C(C)(C)C)cc1
→ >57	-29.7%
Cc1ccc(N(C(C)C(=O)Nc2ccc(S(=O)(=O)N3CCOCC3)cc2)S(C)(=O)=O)cc1C (stereo not given)
→ >57	-9.1%
COCc1cc(=O)[nH]c(/N=C(\N)Nc2ccc(C)cc2)n1
→ >57	15.7%
COCC(=O)Nc1ccc(-c2cn3cccnc3n2)cc1
→ >57	2.0%
CCCn1c(SCC(=O)NCc2cccs2)nc2c1c(=O)n(C)c(=O)n2C
→ >57	-14.5%
CCC(=O)N1CCc2cc(S(=O)(=O)NCCN3CCC(C)CC3)ccc21
→ >57	2.2%
COC(=O)CSC1=NS(=O)(=O)c2ccccc21
→ x	11.8%
Cc1ccc2c(c1)N(CCCC(=O)NCCC1=CCCCC1)C(=O)CO2
→ >57	-13.1%
Cc1nnc2sc(-c3ccncc3)nn12
→ >57	-5.1%
O=C(NCC1CCCCC1)c1ccco1
→ >57	16.3%
C=CCn1c(N)c(C(=O)NC2CCCCC2)sc1=S
→ >57	-4.7%
O=S(=O)(NCC1CCCO1)c1ccc(Cl)c(C(F)(F)F)c1 (stereo not given)
→ >57	-3.1%
Cc1[nH]n(C(N)=S)c(=O)c1C(c1ccccc1)C(C#N)C#N (stereo not given)
→ >57	u
CCS(=O)(=O)NC(C)C(c1cccs1)N1CCN(C)CC1 (stereo not given)
→ >57	-7.7%
Cc1sc2nc(C3CC3)nc(SCC(=O)NCc3ccco3)c2c1C
→ >57	11.6%
COC(=O)c1ccc(-c2nc3ccc(C)cc3o2)cc1
→ >57	3.7%
O=S(=O)(c1cnc[nH]1)N1CCCCCC1
→ >57	-2.1%
CCOC(=O)C1CCCN(C(=O)c2cnn3c(C(F)(F)F)cc(-c4ccccc4)nc23)C1 (stereo not given)
→ >57	u
CCOC(=O)/C=C1\NC(=O)CS1
→ >57	4.9%
COc1ccccc1OCC(O)CN1C(=O)NC(C)(C)C1=O (stereo not given)
→ >57	-16.3%
Cc1ccc(Nc2nc(N)nc(CSc3nnc(-c4ccncc4)o3)n2)cc1
→ >57	3.2%
CCS(=O)(=O)N1CCC(C(=O)NC2CCCCCCC2)CC1
→ >57	-0.6%
Cn1c(=O)oc2cc(S(=O)(=O)N3CCCC(C(=O)NCc4cccs4)C3)ccc21 (stereo not given)
→ >57	-9.0%
Nc1[nH]c(=O)ncc1F
→ >57	2.3%[3.58 µM]
NC(=O)c1cnccn1
→ >57	-0.7%&0.5%
CCOc1cccc(-c2nnc3sc(COc4ccc(C)cc4)nn23)c1
→ >57	-12.9%
CC(=O)NC(CCS(C)(=O)=O)C(=O)Nc1nccs1 (stereo not given)
→ >57	u
